GIV-Gai inh = inhibitors of GIV GBA-motif binding to rat Galpha-i3 | AID 1224905 | 210,000 tested, 0.42% active | P08753 | Galpha-i3/FITC-GIV peptide fluorescence polarization, 90 min; active compounds read low; scaled: aluminum fluoride 0%, vehicle 100% | percent of control (FP), % (test concentration not listed);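 active means replicate mean at 85% of control or lower, very high polarization wells dropped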;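 further: lower values mean more displacement of the GIV peptide from Galpha-i3; wells of about 15 µL received 100 nL stock; the first replicate is given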
Target sequence (P08753 whole entry, looked up): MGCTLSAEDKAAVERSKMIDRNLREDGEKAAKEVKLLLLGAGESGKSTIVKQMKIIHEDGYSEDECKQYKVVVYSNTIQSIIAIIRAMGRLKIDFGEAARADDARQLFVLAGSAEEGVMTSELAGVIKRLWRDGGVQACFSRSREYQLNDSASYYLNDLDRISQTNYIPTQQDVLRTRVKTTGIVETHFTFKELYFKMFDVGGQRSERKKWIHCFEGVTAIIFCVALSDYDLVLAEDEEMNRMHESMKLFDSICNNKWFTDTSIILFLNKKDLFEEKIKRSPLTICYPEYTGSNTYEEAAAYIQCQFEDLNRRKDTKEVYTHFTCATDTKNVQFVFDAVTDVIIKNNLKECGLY
HCMV UL50-53 inh = disrupts HCMV UL50-UL53 complex binding; HTRF UL50-UL53 interaction, normalized percent inhibition; inhibition, % (concentration not given with the values); 190,000 tested, 0.15% active;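 active means both replicates at 50% or more, plus weaker picks with an unusually low signal ratio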;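 further: stock transfer was 100 nL into about 20 µL; 0% = negative control wells and 100% = wells with untagged competitor protein; inactives centre near -12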
Sa growth inh = blocks Staphylococcus aureus growth; S. aureus RN4220 growth, OD600, 20 h, 42 °C; active compounds read low; relative growth, % (no concentration beside the values); 170,000 tested, 0.53% active;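 active means growth at 42 °C up to 50% and 20 or more points under that at 30 °C, or under 10% at both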;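 further: 300 nL library stock went into each well; scaled to the means of positive and negative controls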
Sa growth inh second temp = further read-out of Sa growth inh, marked with its call; relative growth, %; measured here: growth at 30 °C;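 optical density after 20 h as mean of two plates; 100% = untreated growth and lower means inhibition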
An asterisk follows results filed as active; / = not tested or not shown; & = joins results of further samples.

cpd	structure	Sa growth inh second temp	Sa growth inh	GIV-Gai inh	HCMV UL50-53 inh
1	CCC(C)NC(=O)C1CCN(S(C)(=O)=O)CC1 (stereo not drawn)	88	111	101	-18
2	O=C(CSc1ccc2nnc(-c3cccc(F)c3)n2n1)NCc1ccccc1	79	76	100&100	-27
3	COC(=O)c1ccccc1NC(=O)Nc1nnc(N2CCC(C)CC2)s1	93	92	98	-3
4	O=C1Nc2ccccc2/C1=C/c1cn[nH]c1-c1ccccc1	81	91	97	-24
5	Fc1ccc(C(c2ccc(F)cc2)N2CCN(C/C=C/c3ccccc3)CC2)cc1	54&75	80&94	100&100	-39&-13&-1&1&7&-17
6	CCOC(=O)c1ccc(NC(=O)c2sc(NC(=O)c3cc(OC)c(OC)c(OC)c3)c(C(=O)OCC)c2C)cc1	/	/	101	-13
7	O=C(CC1CC2CCC1C2)OCC(=O)c1ccc[nH]1 (stereo not drawn)	85	100	/	-10
8	O=C(CN1CCOCC1)Nc1ccc(Cl)c(NC(=O)c2ccc(Cl)cc2)c1	84	100	111	-2
9	CCCCCCCCCCCCCCCCCCCCCCO	109	107	/	15
10	COC(=O)c1ccc(C)c(NC(=O)C(OC)c2ccccc2)c1 (stereo not drawn)	100	120	100	-9
11	COc1ccc(C2CC(=O)c3cnn(-c4nc5ccccc5s4)c3C2)cc1 (stereo not drawn)	84	97	99	/
12	COc1ccc(CC(=O)Nc2ccc3nc(Nc4cccc(Cl)c4)cc(C)c3c2)cc1	96	95	100	/
13	CCCCOc1cccc(C(=O)NCc2csc(-c3ccc(OC)cc3)n2)c1	/	/	98	-18
14	COC(=O)Nc1ccc(S(=O)(=O)N(CCO)CCO)cc1	102	99	106	-1
15	Cc1ccc(S(=O)(=O)c2cnc(SCC(=O)Nc3cc(C)cc(C)c3)nc2N)cc1	97	119	100	/
16	COc1ccc(CN2C(=O)c3cccnc3C2=O)cc1S(=O)(=O)N(C)Cc1ccco1	101	111	102	-40
17	CN1CCN(C(=O)/C(=C/c2ccc(N(C)C)cc2)NC(=O)c2ccccc2)CC1	84	109	178	-19
18	O=C(c1ccc(N2C(=O)CCS2(=O)=O)cc1)N1CCCCC1	/	/	101	-2
19	O=C(COc1ccc(Cl)cc1Cl)Nc1ncccn1	76	112	105	-19
20	CCCc1nnc2n1NC(c1ccc(C)cc1)C(C(=O)Nc1cc(C)ccc1C)S2 (stereo not drawn)	/	/	107	-4
21	CC(=O)N1CCc2cc(S(=O)(=O)NC(CC(C)C)C(=O)NCCc3ccccc3)ccc21 (stereo not drawn)	90	107	105	-27
22	Cc1ccc(C(=O)N2CCC(c3nc4ccccc4o3)CC2)cc1	/	/	112	-16
23	CC(C(=O)Nc1ccccc1)N1C(=O)c2ccccc2C1=O (stereo not drawn)	103	89	93	-20
24	O=C(O)Cn1ccc2ccccc21	100	102	101	-1
25	CCOC(=O)c1scc(-c2ccccc2)c1S(=O)(=O)Nc1ccc(N(C)C)cc1	92	100	99	/

In the list so far, five contain a halogen.
cpd	structure	Sa growth inh second temp	Sa growth inh	GIV-Gai inh	HCMV UL50-53 inh
2	O=C(CSc1ccc2nnc(-c3cccc(F)c3)n2n1)NCc1ccccc1	79	76	100&100	-27
5	Fc1ccc(C(c2ccc(F)cc2)N2CCN(C/C=C/c3ccccc3)CC2)cc1	54&75	80&94	100&100	-39&-13&-1&1&7&-17
8	O=C(CN1CCOCC1)Nc1ccc(Cl)c(NC(=O)c2ccc(Cl)cc2)c1	84	100	111	-2
12	COc1ccc(CC(=O)Nc2ccc3nc(Nc4cccc(Cl)c4)cc(C)c3c2)cc1	96	95	100	/
19	O=C(COc1ccc(Cl)cc1Cl)Nc1ncccn1	76	112	105	-19

Other entries follow:
cpd	structure	Sa growth inh second temp	Sa growth inh	GIV-Gai inh	HCMV UL50-53 inh
26	Cc1c2cnn(CC(=O)N3CCc4ccccc43)c(=O)c2c(C)n1Cc1ccc(Cl)cc1	86	93	104	/
27	COc1cc(C)ccc1OCCSc1nc2ccc(NC(=O)c3ccc(C)cc3)cc2s1	84	96	95	-6
28	CC(=O)OC[C@H]1O[C@@H](Nc2ccc(C)cc2)[C@H](OC(C)=O)[C@@H](OC(C)=O)[C@@H]1OC(C)=O	94	96	104	-15
29	O=C(NCc1nc(-c2ccc(Cl)cc2)no1)NC1CCCCC1	89	107	103	/
30	N#CC1=C(SCC(=O)Nc2ccc(Br)cc2)NC(=O)C(C#N)C12CCC(c1ccccc1)CC2 (stereo not drawn)	/	/	99	7
31	C=CCN(CC=C)S(=O)(=O)c1ccc(/C(O)=C(/C#N)c2nc3ccccc3[nH]2)cc1	98	112	105	11
32	O=C(O)Cc1coc2cc(O)ccc12	94	92	/	-1
33	COc1ccc(Br)cc1C1CC(=O)Nc2c1c(C)nn2-c1nc(C)cc(C)n1 (stereo not drawn)	88	92	102	-12
34	CCc1cc2c(NCCO)ncnc2s1	80	84	/	-9
35	CC(=O)SCC(=O)N=c1sc2cc(F)ccc2n1C	86	79	98	/
36	O=C(Cc1c(Cl)cccc1Cl)OCc1ccccn1	83	101	/	-14
37	CN(c1ccccc1)S(C)(=O)=O	90	102	102	8
38	COc1cccc(C(=O)NC(C)C(c2cccs2)N2CCN(C)CC2)c1 (stereo not drawn)	79	87	98	-10
39	CCCCn1c(C(C)NC(=O)COc2ccccc2)nc2ccccc21 (stereo not drawn)	85	99	101	-15
40	Cc1ccc(Nc2cc(C(=O)N3CCCC3)c3ccccc3n2)cc1C	100	97	102	/
41	Cn1nc(-c2ccc(S(=O)(=O)N3CCCCC3)s2)cc1C(F)(F)F	85	94	100	-6
42	O=C(CSc1nnc(Cc2ccccc2)o1)N1CCCC1c1ccc2c(c1)OCCCO2 (stereo not drawn)	92	104	/	-16
43	CC1Oc2ccccc2N(CC(=O)NC2CCCC2)C1=O (stereo not drawn)	99	98	106	5
44	CC(=O)N1CCc2c(sc3c2c(=O)n(-c2ccc(C)cc2)c(=O)n3CC(=O)Nc2ccccc2)C1	97	97	108	2
45	CCOc1ccc(C(=O)Nc2ccccc2C(=O)OCc2cc(=O)n3nc(C4CC4)sc3n2)cc1	88	107	100	/
46	COC(=O)c1cc(/C=C/c2ccccc2)on1	91	105	100	-21
47	Cc1cc(C)nc(NC2=NCCN2C(=O)Nc2ccc(Cl)c(Cl)c2)n1	90	95	99	/
48	c1ccc(-c2nnc3sc(-c4c[nH]c5ccccc45)nn23)cc1	/	/	106	-8
49	O=C(CCS(=O)(=O)Cc1ccccc1)N1CCN(C(=O)c2ccco2)CC1	98	102	106	-11
50	Cc1ccc(C)c(N2CCN(C(=O)c3ccc4c(c3)N(Cc3ccc(F)cc3)C(=O)c3ccccc3S4=O)CC2)c1 (stereo not drawn)	88	100	101	-34

(further entries)
cpd	structure	Sa growth inh second temp	Sa growth inh	GIV-Gai inh	HCMV UL50-53 inh
51	Cc1cccc(NC(=O)c2c(Br)sc3c2CCCC3)c1	95	103	105	-48
52	O=S(CCSc1nc2ccccc2s1)Cc1ccccc1 (stereo not drawn)	75	90	98	/
53	Cc1cc2c(C)nc3ccc(C(=O)O)cc3c2o1	80	108	99	-13
54	CCc1cc(Br)ccc1NC(C)=O	92	101	101	-6
55	N=c1n(CCO)c2ccccc2n1CCOc1ccc(Cl)cc1Cl	40	81	109	/
56	CC(=O)N1N=C(c2ccco2)OC1c1ccc(-c2ccccc2)cc1 (stereo not drawn)	102	97	105	12
57	O=C(OCn1nnc2ccccc2c1=O)C1CC(=O)N(Cc2ccco2)C1 (stereo not drawn)	103	94	/	-2
58	Cc1ccc(S(=O)(=O)N2c3cccc4cccc(c34)S2(=O)=O)cc1C	94	97	/	0
59	CN(Cc1ccccc1)C(=O)c1cccn2c(=O)c3c4c(sc3nc12)CCCC4	87	93	104&102	-32
60	COc1ccc(-c2nc(SCc3ccccc3C#N)[nH]c(=O)c2C#N)cc1	87	91	/	-11
61	CC1SCC(=O)N(CC(=O)NC2CCCCC2)C1=O (stereo not drawn)	94	101	96	-9
62	CC(=O)Oc1ccc(-c2nc3ccccc3c(=O)o2)cc1	87	98	/	-13
63	Cc1cccc(Cn2nnc3c(=O)[nH]c(C4CCN(C(=O)c5ccccc5F)CC4)nc32)c1	91	103	100	-6
64	COc1ccc(CNC(=O)CCn2c(=S)[nH]c3cc4c(cc3c2=O)OCO4)cc1	94	113	104	-10
65	Cc1c(C#N)c(O)n(CCCO)c(=O)c1N=Nc1c(C)n(C)n(-c2ccccc2)c1=O	78	74	131	-82
66	CC(=O)N1CCC(C(=O)O/N=C(\N)c2ccc(Cl)cc2)CC1	92	97	103	-9
67	Cc1ccccc1OCCSc1nc2ccc(NC(=O)c3cccs3)cc2s1	65	92	103	-4
68	CCCCC(=O)C1CCC(c2ccc(Cl)cc2)CC1 (stereo not drawn)	76	97	/	-7
69	O=C(COCc1cc(-c2ccco2)on1)NCCc1ccccc1	87	105	106	-26
70	O=C(CCN1C(=O)COc2ccccc21)NCCCN1CCN(c2ccc(F)cc2)CC1	72	108	110	8
71	COc1cccc2c1NC(c1cccc(Cl)c1Cl)C1CC=CC21 (stereo not drawn)	/	/	103	-12
72	O=C(COC(=O)c1c2c(nc3ccccc13)CCCC2)NCc1ccco1	85	77	/	-27
73	Cc1nn(CC(=O)NC2CCCC2)c(=O)c2cccn12	89	83	97	-19
74	COC(=O)c1c(=O)n(O)c2cc(Cl)c(Cl)cc2[n+]1[O-]	93	88	92	/
75	COc1cc(OC)c(NC(=O)Cn2c(=O)nc(-c3ccccc3)c3ccccc32)cc1Cl	92	104	102	-6

Further records
cpd	structure	Sa growth inh second temp	Sa growth inh	GIV-Gai inh	HCMV UL50-53 inh
76	CC(C)c1cc(C(=O)N2CC3(C)CC2CC(C)(C)C3)no1 (stereo not drawn)	65	64	108	3
77	CC(C)(C)S(=O)(=O)/C(C#N)=C/NN1CCCCC1	82	100	105	-5
78	CCOc1ccccc1NC(=O)C(CC)Sc1nc2ncccc2[nH]1 (stereo not drawn)	78	97	100	/
79	COc1cc(/C=C/C(=O)OCc2c(C)noc2C)cc(S(=O)(=O)N2CCc3ccccc32)c1OC	90	68	/	-16
80	O=C(Nc1ccc2c(c1)OCO2)c1nnc(C2CCCN2C(=O)C2CC2)s1 (stereo not drawn)	/	/	106	-46
81	CCn1c(=O)n(CC)c2cc(N3CCCCC3)c(NC(=O)Nc3cc(OC)ccc3OC)cc21	/	/	99	-21
82	Cn1c(=O)c2c(nc(NC3CCCCC3)n2Cc2cccc(Br)c2)n(C)c1=O	/	/	105	-22
83	COc1ccc(NS(=O)(=O)c2cccc3nsnc23)c(OC)c1	86	85	/	-69
84	COC(=O)c1ccc(CSc2ccc(S(=O)(=O)N3CCCC3)cn2)o1	99	68	/	-20
85	COc1ccc(N=C2SCC(C(C)(C)C)=NN2C)cc1	95	83	105	-17
86	Cc1sc(-c2ccno2)cc1S(=O)(=O)NC1CCCCCCC1	/	/	100	-15
87	O=c1n(-c2ccccc2)c(=O)n2n1CCC2	85	107	104	-24
88	O=C(O)CCC(=O)Nc1ccccn1	86	102	/	-4
89	CC(C)(C)C(=O)COC(=O)c1ccc2c(=O)n3c(nc2c1)CCCCC3	83	93	/	-2
90	CN1CCOc2cc(S(=O)(=O)NC3CCCCNC3=O)ccc21 (stereo not drawn)	94	99	110	4
91	O=C(OCC1CCCO1)c1ccccc1C(F)(F)F (stereo not drawn)	92	117	/	-11
92	O=C(CN1C(=O)COc2ccc(S(=O)(=O)NC3CCCC3)cc21)Nc1ccc(F)c(Cl)c1	86	72	100	/
93	Cc1ccccc1CSc1nc(=O)n(CCc2ccccc2)c2c1CCC2	/	/	105	-8
94	CN(Cc1ccccc1)C(=O)C1CCCN1S(=O)(=O)c1ccc2c(c1)CCCC(=O)N2 (stereo not drawn)	82	93	93	-24
95	Cc1ccc(N2C(=O)c3sc4nc(C)cc(C)c4c3NC2C)cc1 (stereo not drawn)	/	/	104	-54
96	Cc1[nH]c(=O)[nH]c(=O)c1S(=O)(=O)N1CCN(c2ccccc2Cl)CC1	92	104	102	/
97	CSc1nn(-c2c(Cl)cc(C(F)(F)F)cc2Cl)c(N)c1C#N	66	105	101	-7
98	CCN(CC)CCCC(C)Nc1nc(C)nc2cc(Cl)ccc12 (stereo not drawn)	/	/	107	-8
99	COc1cc(CNCCSc2nnnn2C)cc(Cl)c1OCc1ccccc1	86	92	107	-13
100	CCCNC(=O)c1ccc2c(c1)N(Cc1cccc(C)c1)C(=O)c1ccccc1S2	92	93	98	/

The listing continues.
cpd	structure	Sa growth inh second temp	Sa growth inh	GIV-Gai inh	HCMV UL50-53 inh
101	Cc1nc(SCC(=O)c2cn(CCC#N)c3ccccc23)n(C2CCCCC2)c1C	54	56	/	-28
102	COC(=O)/C(C#N)=C1/C(=O)Nc2ccccc21	95	100	96	-12
103	CCCc1[nH][nH]c(=O)c1C(c1ccc(Cl)cc1)C(C#N)C#N (stereo not drawn)	98	96	108	5
104	CC(Sc1nc2c(n1-c1ccccc1)CCCC2)C(=O)Nc1ccc(S(N)(=O)=O)cc1 (stereo not drawn)	93	90	/	-25
105	CO/N=C/C1=C(Sc2nc3ccccc3s2)CCCC1	96	120	/	-33
106	C(=NCc1ccc2c(c1)OCO2)c1cccnc1	91	95	/	-4
107	CCOC(=O)c1nc(N2CCc3ccccc32)c2ccccc2n1	85	98	117	-73
108	COC(=O)/C(C#N)=C/c1cccc(Br)c1	96	106	112	-13
109	Cc1cc(C(=O)COC(=O)c2ccc(=O)n(Cc3ccccc3)n2)c(C)n1C1CC1	83	85	/	-43
